# Yeast UUG start: modulators of yeast start codon fidelity, primary screen, whole organism, S. cerevisiae, single point, plate reader; S. cerevisiae UUG-firefly luciferase reporter, luminescence/redox ratio; activity score, % at 18.7 µM; 0.13% of 350,000 active;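 active = replicate mean at a twofold rise or more, about +100% in these data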;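 note: firefly luciferase made from a UUG start codon reports start codon fidelity; reporter light over untreated wells divided by growth signal over untreated wells; some hits fall short of that in this replicate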
# HIV Env fusion: inhibitors of HIV-1 Env-driven cell-cell fusion, primary screen, HeLa-JRFL effector, CEM21 target cells, luciferase; inhibition, % at 12.3 µM; 1.1% of 360,000 active;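 active = mean replicate inhibition score of at least 50 and every replicate individually at or above 50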;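 note: 0% = plate neutral controls and 100% = maraviroc near 300 nM; one replicate is shown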
# * = called active by the depositor; [ ] = remark or other dose.
SMILES,Yeast UUG start,HIV Env fusion
C[C@@H]1CN([C@H](C)CO)C(=O)c2cc(NC(=O)CCC(F)(F)F)ccc2O[C@@H](C)CCCCO[C@H]1CN(C)Cc1ccc(C(=O)O)cc1,2.4,-30.9[16.7 µM]
C[C@H]1CCCCO[C@@H](CN(C)Cc2ccc(C(F)(F)F)cc2)[C@@H](C)CN([C@@H](C)CO)C(=O)c2cc(NS(=O)(=O)c3ccc(F)cc3)ccc2O1,2.7,17.3[16.7 µM]
CNC[C@@H]1OCCCC[C@@H](C)Oc2ccc(NS(=O)(=O)c3ccc(C)cc3)cc2C(=O)N([C@@H](C)CO)C[C@@H]1C,19.1,2.5[16.7 µM]
O=C(NCC[C@@H]1CC[C@@H](NC(=O)C2CCC2)[C@@H](CO)O1)Nc1ccc(Cl)cc1,-11.8,14.0[16.7 µM]
COc1ccc(NC(=O)N(C)C[C@H]2Oc3ccc(NC(=O)Cc4ccccc4)cc3C(=O)N([C@@H](C)CO)C[C@@H]2C)cc1,-8.1,12.5[16.7 µM]
Cc1noc(C)c1NC(=O)Nc1cccc2c1O[C@@H](CN(C)C(=O)Nc1ccc3c(c1)OCO3)[C@H](C)CN([C@@H](C)CO)C2=O,16.2,12.0[16.7 µM]
COC(=O)C[C@H]1CC[C@@H]2[C@H](COc3ccc(NC(=O)c4ccc(OC)cc4)cc3C(=O)N2C)O1,-6.0,-17.5[16.7 µM]
C[C@H](CO)N1C[C@H](C)[C@H](CN(C)Cc2ccc(Oc3ccccc3)cc2)Oc2ccc(NS(=O)(=O)c3cn(C)cn3)cc2CC1=O,9.5,-27.7[16.7 µM]

# The last 3 records of the section above lead into the next.
SMILES,Yeast UUG start,HIV Env fusion
Cc1noc(C)c1NC(=O)Nc1cccc2c1O[C@@H](CN(C)C(=O)Nc1ccc3c(c1)OCO3)[C@H](C)CN([C@@H](C)CO)C2=O,16.2,12.0[16.7 µM]
COC(=O)C[C@H]1CC[C@@H]2[C@H](COc3ccc(NC(=O)c4ccc(OC)cc4)cc3C(=O)N2C)O1,-6.0,-17.5[16.7 µM]
C[C@H](CO)N1C[C@H](C)[C@H](CN(C)Cc2ccc(Oc3ccccc3)cc2)Oc2ccc(NS(=O)(=O)c3cn(C)cn3)cc2CC1=O,9.5,-27.7[16.7 µM]
COc1ccc(CN(C)C[C@@H]2OCCCC[C@@H](C)Oc3ccc(NS(=O)(=O)c4c(C)noc4C)cc3C(=O)N([C@H](C)CO)C[C@H]2C)cc1,7.8,-28.3[16.7 µM]
O=C(NCC[C@@H]1CC[C@@H](NS(=O)(=O)c2ccc(Oc3ccccc3)cc2)[C@H](CO)O1)C1CC1,6.5,4.4[16.7 µM]
C[C@H](CO)N1C[C@H](C)[C@H](CN(C)C(=O)Nc2ccc3c(c2)OCO3)Oc2ccc(NC(=O)c3ccncc3)cc2CC1=O,-7.3,-11.1[16.7 µM]
C[C@H]1CCCCO[C@H](CN(C)C(=O)c2ccccc2)[C@@H](C)CN([C@@H](C)CO)C(=O)c2cc(NS(=O)(=O)c3ccc(Cl)cc3)ccc2O1,8.5,-17.0[16.7 µM]
CNC[C@@H]1Oc2ccc(NS(C)(=O)=O)cc2C(=O)N([C@H](C)CO)C[C@@H]1C,-13.1,-8.5[16.7 µM]
C[C@H]1CN([C@@H](C)CO)C(=O)c2cc(C#CC(C)(C)O)cnc2O[C@@H]1CN(C)C(=O)c1ccccc1F,-1.7,-3.1[16.7 µM]
C[C@@H]1CN([C@@H](C)CO)C(=O)c2cccc(NS(C)(=O)=O)c2O[C@H]1CN(C)Cc1ccccc1,-1.1,-22.5[16.7 µM]
C[C@@H]1CN([C@@H](C)CO)S(=O)(=O)c2ccc(-c3ccncc3)cc2O[C@@H]1CN(C)Cc1ccccc1,-5.2,15.3[16.7 µM]

# (further entries)
SMILES,Yeast UUG start,HIV Env fusion
CCC(=O)N(C)C[C@@H]1Oc2cc(-c3cccc(F)c3)ccc2S(=O)(=O)N([C@@H](C)CO)C[C@@H]1C,-4.1,12.8[16.7 µM]
Cc1ccc(S(=O)(=O)Nc2ccc3c(c2)CC(=O)N([C@@H](C)CO)C[C@@H](C)[C@@H](CN(C)Cc2ccc(Oc4ccccc4)cc2)O3)cc1,10.3,10.6[16.7 µM]
C[C@@H]1CN([C@H](C)CO)C(=O)Cc2cc(NC(=O)c3ccncc3)ccc2O[C@H]1CN(C)Cc1ccccc1,-2.4,20.5[16.7 µM]
C[C@@H]1CN([C@H](C)CO)C(=O)c2cc(NC(=O)NC3CCCCC3)ccc2O[C@@H]1CN(C)C(=O)Nc1cccc2ccccc12,-11.9,-14.9[16.7 µM]
COc1ccc(C#Cc2cnc3c(c2)C(=O)N([C@@H](C)CO)C[C@@H](C)[C@H](CN(C)CC2CCCC2)O3)cc1,21.5,-3.4[16.7 µM]
O=C(C[C@@H]1C[C@@H]2c3cc(NS(=O)(=O)c4ccccc4)ccc3O[C@@H]2[C@H](CO)O1)N1CCCCC1,9.0,-23.9[16.7 µM]
C[C@H](CO)N1C[C@H](C)[C@H](CN(C)Cc2ccc(Cl)c(Cl)c2)Oc2c(NC(=O)Nc3ccc(C(F)(F)F)cc3)cccc2C1=O,-14.7,-22.4[16.7 µM]
CCCC(=O)Nc1ccc2c(c1)C(=O)N(C)C[C@H](OC)[C@H](C)CN(C(=O)c1ccccc1F)[C@H](C)CO2,-2.6,-2.7[16.7 µM]

# Carrying on:
SMILES,Yeast UUG start,HIV Env fusion
C=CC[C@]1(C(=O)N(C)C)N=C(c2ccc(OCCCO)cc2)O[C@H]1c1ccccc1,20.7,4.5[16.7 µM]
COc1ccc(CN(C)C[C@@H]2Oc3ccc(NC(=O)Nc4ccc5c(c4)OCO5)cc3CC(=O)N([C@@H](C)CO)C[C@@H]2C)cc1,3.6,4.5[16.7 µM]
O=C(C[C@@H]1C[C@@H]2c3cc(NC(=O)NC4CCCC4)ccc3O[C@@H]2[C@@H](CO)O1)NCc1ccccc1,42.9,-27.6[16.7 µM]
C[C@@H]1CN([C@H](C)CO)C(=O)c2cc(NC(=O)Nc3cccc4ccccc34)ccc2O[C@H]1CN(C)C,-9.7,-21.0[16.7 µM]
C[C@H](CO)N1C[C@H](C)[C@@H](CN(C)CC2CCCCC2)Oc2ccc(NC(=O)c3ccncc3)cc2C1=O,2.0,-2.9[16.7 µM]
C[C@H]1CCCCO[C@H](CN(C)Cc2ccccc2)[C@@H](C)CN([C@@H](C)CO)C(=O)c2cc(N(C)C)ccc2O1,17.0,16.6[16.7 µM]
C[C@H](O)C#Cc1ccc2c(c1)O[C@H](CN(C)C(=O)c1ccccc1)[C@@H](C)CN([C@@H](C)CO)S2(=O)=O,14.6,-3.9[16.7 µM]
COc1cccc(NC(=O)N(C)C[C@@H]2Oc3cc(C#Cc4ccccc4)ccc3S(=O)(=O)N([C@@H](C)CO)C[C@H]2C)c1,16.5,-4.3[16.7 µM]

# (list continues)
# Below each SMILES – Yeast UUG start | HIV Env fusion
CNC[C@H]1Oc2c(cccc2N(C)C)C(=O)N([C@H](C)CO)C[C@H]1C
    -13.6 | -1.1[16.7 µM]
Cc1noc(C)c1NC(=O)N(C)C[C@H]1Oc2ccc(NC(=O)C3CCCCC3)cc2C(=O)N([C@@H](C)CO)C[C@H]1C
    0.3 | -10.5[16.7 µM]
C[C@@H]1CN([C@H](C)CO)C(=O)c2cccc(NS(C)(=O)=O)c2O[C@H]1CN(C)Cc1ccncc1
    -10.8 | -2.3[16.7 µM]
C[C@H](CO)N1C[C@H](C)[C@@H](CN(C)Cc2ccccc2)Oc2ccc(NS(=O)(=O)c3ccc(Cl)cc3)cc2C1=O
    -2.0 | -4.4[16.7 µM]
C[C@@H]1CCCCO[C@@H](CN(C)S(=O)(=O)c2cccs2)[C@@H](C)CN([C@@H](C)CO)C(=O)c2cc(NC(=O)Cc3ccccc3)ccc2O1
    -2.8 | 4.5[16.7 µM]
CN1C(=O)c2cc(NC(=O)c3cccc(F)c3)ccc2OC[C@@H]2O[C@H](CC(=O)NCc3ccccc3)CC[C@H]21
    24.2 | -7.7[16.7 µM]
Cc1ccc(S(=O)(=O)NCC[C@@H]2CC[C@@H](NC(=O)Nc3cccc(F)c3)[C@@H](CO)O2)cc1
    13.1 | 13.9[16.7 µM]
C[C@]12CCC3C4(C=CC5(C=C4C(=O)C4CCCCC4)C[C@@H](O)CC[C@]35C)C1CC[C@@]2(O)CN1CCC(n2c(=O)[nH]c3ccccc32)CC1 (stereo not given in full)
    -1.2 | 25.8[16.7 µM]
C[C@@H]1CCCCO[C@H](CN(C)Cc2ccncc2)[C@@H](C)CN([C@H](C)CO)C(=O)c2cc(NC(=O)C3CCCCC3)ccc2O1
    -11.5 | 17.4[16.7 µM]
Cc1noc(C)c1NC(=O)N(C)C[C@@H]1OCCCC[C@@H](C)Oc2ccc(NS(=O)(=O)c3cn(C)cn3)cc2C(=O)N([C@H](C)CO)C[C@H]1C
    -0.8 | 15.7[16.7 µM]

# The listing continues.
# Below each SMILES – Yeast UUG start | HIV Env fusion
COCC#Cc1cnc2c(c1)C(=O)N([C@H](C)CO)C[C@H](C)[C@@H](CN(C)C(=O)NC1CCCC1)O2
    -6.0 | 13.1[16.7 µM]
Cc1ccc(-c2cnc3c(c2)C(=O)N([C@@H](C)CO)C[C@@H](C)[C@@H](CN(C)Cc2ccccc2C(=O)O)O3)cc1
    13.1 | -2.8[16.7 µM]
C[C@@H]1CN([C@H](C)CO)C(=O)c2cc(/C=C/c3ccccc3)cnc2O[C@H]1CN(C)C(=O)C1CCCCC1
    1.2 | 12.7[16.7 µM]
C/C=C/c1ccc2c(c1)O[C@@H](CN(C)C(=O)c1ccccc1)[C@H](C)CN([C@H](C)CO)S2(=O)=O
    11.5 | 9.5[16.7 µM]
COc1ccc(S(=O)(=O)N[C@H]2CC[C@H](CCNC(=O)Cc3ccccn3)O[C@@H]2CO)cc1
    15.6 | 4.5[16.7 µM]
COc1cccc(NC(=O)N(C)C[C@@H]2Oc3cc(C#Cc4ccncc4)ccc3S(=O)(=O)N([C@@H](C)CO)C[C@H]2C)c1
    -4.5 | -0.7[16.7 µM]
CCNC(=O)Nc1ccc2c(c1)C(=O)N(C)[C@@H]1CC[C@H](CC(=O)NCCOC)O[C@@H]1CO2
    -1.5 | 1.7[16.7 µM]
COc1ccc(NC(=O)N[C@H]2CC[C@H](CCNC(=O)c3cc(Cl)cc(Cl)c3)O[C@@H]2CO)cc1
    -5.3 | 5.8[16.7 µM]
COc1ccc(NC(=O)Nc2ccc3c(c2)C(=O)N([C@H](C)CO)C[C@H](C)[C@H](CN(C)C(=O)Nc2ccc(C(F)(F)F)cc2)OCCCC[C@H](C)O3)cc1
    -15.3 | 11.9[16.7 µM]
COc1ccc(S(=O)(=O)N(C)C[C@H]2Oc3ccc(NC(=O)Cn4cnnn4)cc3CC(=O)N([C@@H](C)CO)C[C@H]2C)cc1
    7.7 | -19.5[16.7 µM]

# (next part)
# Below each SMILES – Yeast UUG start | HIV Env fusion
C[C@H](CO)N1C[C@H](C)[C@H](CN(C)C(=O)c2ccccc2)OCCCC[C@H](C)Oc2ccc(NC(=O)Cc3ccccc3)cc2C1=O
    43.6 | -15.9[16.7 µM]
CCC(=O)N(C)C[C@H]1Oc2ncc(-c3ccc(F)cc3)cc2C(=O)N([C@H](C)CO)C[C@@H]1C
    -9.6 | 11.5[16.7 µM]
C[C@@H]1CN([C@H](C)CO)C(=O)c2cc(C3=CCCCC3)cnc2O[C@@H]1CN(C)C(=O)Cc1ccccc1
    12.8 | 5.0[16.7 µM]
COc1ccc(S(=O)(=O)N(C)C[C@@H]2OCCCC[C@@H](C)Oc3ccc(NC(=O)Nc4ccc(C(F)(F)F)cc4)cc3C(=O)N([C@@H](C)CO)C[C@H]2C)cc1
    -21.5 | 15.7[16.7 µM]
Cc1noc(C)c1S(=O)(=O)N(C)C[C@@H]1OCCCC[C@@H](C)Oc2ccc(NS(=O)(=O)c3cccs3)cc2C(=O)N([C@@H](C)CO)C[C@@H]1C
    2.1 | -1.0[16.7 µM]
C[C@H](CO)N1C[C@H](C)[C@@H](CN(C)C(=O)C2CCCCC2)Oc2ncc(C#CCc3ccccc3)cc2C1=O
    9.7 | -19.5[16.7 µM]
C[C@@H]1CN([C@H](C)CO)C(=O)c2cc(C#CCN(C)C)cnc2O[C@@H]1CN(C)Cc1ccc2c(c1)OCO2
    -6.9 | 0.9[16.7 µM]
CC(C)NC(=O)Nc1ccc2c(c1)CC(=O)N([C@H](C)CO)C[C@H](C)[C@H](CN(C)C(=O)Nc1ccc(F)cc1)O2
    -4.0 | 19.9[16.7 µM]
CC(=O)N(C)C[C@@H]1Oc2ncc(C#Cc3cccc(F)c3)cc2C(=O)N([C@H](C)CO)C[C@@H]1C
    15.0 | 11.5[16.7 µM]
CC(=O)N(C)C[C@@H]1Oc2cc(/C=C/c3ccccc3)ccc2S(=O)(=O)N([C@H](C)CO)C[C@@H]1C
    28.6 | 1.1[16.7 µM]

# (listing goes on)
# Below each SMILES – Yeast UUG start | HIV Env fusion
COc1ccc(NC(=O)N(C)C[C@H]2Oc3c(NC(=O)c4nc5ccccc5s4)cccc3C(=O)N([C@@H](C)CO)C[C@@H]2C)cc1
    -6.6 | 2.8[16.7 µM]
COCC(=O)N(C)C[C@@H]1Oc2cc(C#Cc3ccccc3)ccc2S(=O)(=O)N([C@@H](C)CO)C[C@H]1C
    0.5 | 12.2[16.7 µM]
CO[C@H]1CN(C)C(=O)c2ccc(NC(=O)NC(C)C)cc2OC[C@@H](C)N(C(=O)NC(C)C)C[C@@H]1C
    -4.9 | 10.0[16.7 µM]
C[C@H]1CCCCO[C@H](CN(C)C(=O)Cc2ccccc2)[C@@H](C)CN([C@@H](C)CO)C(=O)c2cc(NC(=O)Nc3ccc4c(c3)OCO4)ccc2O1
    -19.6 | 30.0[16.7 µM]
O=C(C[C@H]1CC[C@H](NC(=O)CN2CCOCC2)[C@@H](CO)O1)NC1CCCCC1
    -9.8 | -13.0[16.7 µM]
COc1ccc(NC(=O)N(C)C[C@H]2Oc3cc(C#CCN(C)C)ccc3S(=O)(=O)N([C@@H](C)CO)C[C@H]2C)cc1
    8.3 | -25.5[16.7 µM]

# Compound activity from PubChem BioAssay.

# These rows are one share of the data (hit frequency here may not be typical).
